Screens: PubChem BioAssay, several laboratories
Beta apoptosis – inhibitors of cytokine-induced beta cell apoptosis, primary screen, luminescence; protection from apoptosis, % (test concentration not listed); INS-1E cytokine-induced death, ATP luminescence, 48 h; percent of positive-control rescue, neutral wells zero; actives 0.8% (n = 300,000);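 active = all replicates at 75% or more, or half of them and the mean; inconclusive = half reach 75% but not the mean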;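 also: 0% = cytokine-treated negative control wells and 100% = positive control rescue; higher means more ATP so stronger rescue from cytokine killing; wells of about 40 µL received 100 nL stock; the first replicate is given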
FGF22 binding – binders of human FGF22 protein, primary screen, FGF22 synaptogenesis inhibitor project, biophysical, thermal shift, single point | Fibroblast growth factor 22 (Homo sapiens), Q9HCT0 | calls only at 9.99 µM | recombinant FGF22 thermal shift, SYPRO orange fluorescence; percent of sucrose octasulfate shift, DMSO zero | actives 1.5% (n = 340,000) | AID 651658, 2012;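 active = melting point raised past a set limit in the mean and every replicate; inconclusive = no clear call; three in four hits are not shown here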
Target sequence (Q9HCT0 whole entry, looked up): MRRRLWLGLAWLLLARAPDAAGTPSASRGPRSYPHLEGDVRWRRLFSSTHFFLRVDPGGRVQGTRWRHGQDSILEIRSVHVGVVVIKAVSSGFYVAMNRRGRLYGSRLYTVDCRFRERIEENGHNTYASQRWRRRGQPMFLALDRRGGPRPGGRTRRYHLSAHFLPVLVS
UCH37 DUB inh – inhibitors of human UCH37 deubiquitinase, primary screen, biochemical, Ub-AMC cleavage, fluorescence. Ubiquitin carboxyl-terminal hydrolase isozyme L5 (Homo sapiens), Q9Y5K5. purified proteasome/UCH37. inhibition, % (concentration not given with the values). actives 0.33% (n = 330,000). AID 588478, 2011;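 active = mean of two replicates above 20%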;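 also: 0% = compound-free wells with enzyme and 100% = wells lacking proteasome; stock transfer was 100 nL into about 20 µL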
Target sequence (Q9Y5K5 whole entry, looked up): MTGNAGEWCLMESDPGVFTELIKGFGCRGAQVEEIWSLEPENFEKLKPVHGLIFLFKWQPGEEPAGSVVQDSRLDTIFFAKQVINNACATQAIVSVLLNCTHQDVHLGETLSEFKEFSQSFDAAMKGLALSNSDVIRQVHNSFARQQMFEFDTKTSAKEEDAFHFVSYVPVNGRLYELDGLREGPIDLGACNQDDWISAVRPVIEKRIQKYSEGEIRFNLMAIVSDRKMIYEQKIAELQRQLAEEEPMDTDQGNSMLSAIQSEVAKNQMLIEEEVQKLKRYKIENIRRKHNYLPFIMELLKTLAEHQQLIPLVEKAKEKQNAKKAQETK
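Assay system: Proteasome-bound UCH37. Buffer or medium: pH 7.4 Tris-HCl (50 mM) with ovalbumin, ATP-MgCl2, DTT. Incubation: 30 min preincubation with enzyme, 25 min cleavage at room temperature. Measured by: fluorescence, ex 355 nm, em 460 nm. Read-out basis: percent inhibition. Control set: wells without proteasome as full block, compound-free enzyme plus substrate as uninhibited.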
Bfl-1 A1 inh – caspase 3/7 activation in MEF A1-2A-BIM cells, primary screen, A1 inhibitor project, cell-based, luminescence, HTS; Caspase-Glo 3/7 luminescence, 3 h; percent of clofoctol response, vehicle zero; caspase activation, % (concentration not given with the values); actives 0.066% (n = 330,000);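 active = over half of replicate activation scores above 10%, or exactly half above 10 with the replicate mean above 10; inconclusive = replicate mean below 10 yet half the replicates above 10; inactive = over half of replicates below 10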;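 also: wells of about 30 µL received 50 nL stock; many hits fall short of the cut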
MLL AF4-AF9 inh – inhibitors of AF4 peptide binding to AF9, primary screen, biochemical, AlphaScreen, biotin-AF4 peptide, FLAG-AF9, single point; inhibition, % at 10 µM; actives 0.47% (n = 350,000); AID 651704, 2012;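 active = every replicate reaching a set inhibition limit, whatever the replicate mean, cut at about 25% in these data; inconclusive = mean inhibition reaches that limit but some replicates miss it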;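 also: 0% = plate neutral control median and 100% = total signal loss; the record names both 10 and 1 µM as test concentration; the first replicate is given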
Target sequence (P42568 whole entry, looked up): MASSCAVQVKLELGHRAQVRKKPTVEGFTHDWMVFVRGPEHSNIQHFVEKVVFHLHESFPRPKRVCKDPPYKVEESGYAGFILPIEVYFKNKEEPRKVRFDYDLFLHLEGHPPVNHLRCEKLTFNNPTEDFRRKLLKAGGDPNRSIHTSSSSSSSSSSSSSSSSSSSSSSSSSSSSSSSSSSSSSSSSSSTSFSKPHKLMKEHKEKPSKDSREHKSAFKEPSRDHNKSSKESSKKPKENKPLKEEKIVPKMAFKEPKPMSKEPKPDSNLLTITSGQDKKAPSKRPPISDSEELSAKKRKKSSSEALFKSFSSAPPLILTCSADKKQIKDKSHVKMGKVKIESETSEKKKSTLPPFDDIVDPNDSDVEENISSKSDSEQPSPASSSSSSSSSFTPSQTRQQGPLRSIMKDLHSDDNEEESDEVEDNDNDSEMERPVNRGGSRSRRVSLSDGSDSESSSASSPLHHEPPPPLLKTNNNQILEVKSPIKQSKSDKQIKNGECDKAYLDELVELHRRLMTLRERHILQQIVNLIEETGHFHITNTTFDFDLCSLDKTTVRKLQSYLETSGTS
Ecoli rRNA inh – reduced GFP signal of wild-type E. coli, primary screen, bacterial rRNA inhibitor project, GFP/RFP fluorescence, OD600, single point | GFP signal change (wild-type ribosome), % (test concentration not listed) | actives 1.6% (n = 350,000) | E. coli WT GFP vs humanized-ribosome RFP mutants, 24 h; hits give low values; DMSO median 0, no signal -100 | AID 720706, 2013;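 active = significant combined selectivity score with lowered wild-type GFP, culture density cut under 30%, mutant RFP and density less affected; inactive = any of these conditions unmet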; also: one replicate is shown; some compounds called inactive have numbers as strong as hits
E coli growth – E. coli growth inhibition, primary screen, OD600; OD600 absorbance (no concentration beside the values); Escherichia coli growth, 23 h; hits give low values; AID 1053175, 2014; actives 0.21% (n = 330,000);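 active = OD600 absorbance below the run mean of sample wells minus 3.6 SD, in any replicate, cut at about 0.56 in these data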;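 also: stock transfer was 300 nL into about 60 µL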
T cruzi repl – inhibitors of intracellular T. cruzi growth, primary screen, luminescence, NIH3T3 host cells | T. cruzi beta-gal in NIH3T3, 90 h | inhibition, % (concentration not given with the values) | actives 1.4% (n = 300,000);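 active = mean inhibition across valid replicates above about 55%, limit read from the data; inconclusive = mean below that limit but half or more replicates reach it; inactive = mean below it, under half of replicates reach it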;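 also: signal also drops with host cell toxicity which is not excluded here; 0% = plate median of DMSO wells and 100% = zero luminescence signal; higher percent means less beta-gal luminescence so fewer parasites; stock transfer was 50 nL into about 50 µL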
Ecoli rRNA inh OD600 – recorded beside Ecoli rRNA inh, whose call it bears; OD600 change, %; measured here: OD600 growth;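 optical density of the mix in the first replicate; 0 = DMSO median and -100 = no signal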
Ecoli rRNA inh RFP – second read-out of Ecoli rRNA inh, no call of its own (marks repeat the call); RFP signal change, %; measured here: RFP humanized mutant strains;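 first replicate; 0 = DMSO median and -100 = no signal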
* hit, by the source's call; i = inactive; ? = inconclusive; . = not tested or not shown; & = joins results of further samples.

SMILES	Beta apoptosis	FGF22 binding	UCH37 DUB inh	Bfl-1 A1 inh	MLL AF4-AF9 inh	Ecoli rRNA inh	Ecoli rRNA inh OD600	Ecoli rRNA inh RFP	E coli growth	T cruzi repl
COC(=O)[C@@]1(C)[C@H]2C(=O)N(Cc3ccccc3)C(=O)[C@H]2[C@H]2CN=C(SCc3ccc(C#N)cc3)N21	.	.	3.1	.	-2.7	-2	4	3.2	0.7	.
CC(C)[C@@H](C(=O)N1CCNCC1)n1cc(CCO)nn1	-1	i	1.9	1.1	0.6	0	-2	-4.6	.	-22
COC(=O)c1c(NC(=O)C(C)C)sc(C(=O)N2CCOCC2)c1C	-7	i	4.4	0.1	-0.2	8	4	1.0	0.71	-4
Cc1ccc2oc(=O)n(Cc3ccc(F)cc3)c2c1	-4	.	1.1	0.3	.	.	.	.	0.71	-7
CC1=CC2=NC(=O)/C(=C/c3cccs3)C(=N)N2O1	-2	i	6.8	-0.3	-0.4	23	10	7.1	0.64	-1
Cc1ccc(CNS(=O)(=O)c2cc3c4c(c2)C(C)C(=O)N4CCC3)cc1 (centres undefined)	-1	i	0.4	-0.5	0.2	-4	-2	4.4	0.71	-8
C[C@]1(C(=O)NCc2cc(F)cc(C(F)(F)F)c2)C=C[C@@H](Cc2ccccc2)N1C(=O)c1ccccc1	-4	i	1.9	-0.7	0.1	4	-21	2.0	.	26
O=C1/C(=C/c2ccncc2)SC(=S)N1Cc1ccccc1	.	i	4.5	?	9.6	-1	-8	38	0.68	5
CS(=O)(=O)c1nc2ccccc2n1Cc1ccccc1	-5	.	2.9	-0.6	.	.	.	.	0.71	-13
Cc1nn(C)c(C(=O)Nc2ccc(Cn3cccn3)cc2)c1[N+](=O)[O-]	0	.	-1.5	0.7	.	.	.	.	0.66	-8
c1ccc(-n2nnnc2NC2CCCCCC2)cc1	9	i	5.0	0.2	2.3	12	0	-6.2	0.7	-11
CC(C)c1c(C(=O)N/N=C/c2ccoc2)nnn1-c1nonc1N	-8	i	.	0.4	-0.8	-1	1	0.7	.	1
COc1ccccc1C(=O)NCC(c1ccco1)N1CCc2ccccc21 (centres undefined)	3	i	3.3	0.1	7.2	-40	-63	-8.1	0.68	6
COc1ccc2nc(N3C(=O)C(O)=C(C(=O)c4ccco4)C3c3ccccc3OC)sc2c1 (centres undefined)	8	i	9.6	-0.8	1.9	-32*	-24*	4.3*	0.69	-32
O=C(COC(=O)c1cncc(Br)c1)NC1CCCCC1	-1	i	0.4	0.5	-3.0	16	8	7.8	0.69	.
Cn1nc(C(=O)NCCc2ccc(S(N)(=O)=O)cc2)c2ccccc2c1=O	-9	i	1.3	1.1	-7.4	2	11	1.2	0.67	0
Cc1cc(Nc2cccc(Cl)c2Cl)n2ncnc2n1	-6	i	4.3	0.5	4.0	10	4	2.8	0.72	-3
Cc1[nH][nH]c(=O)c1C(c1cc([N+](=O)[O-])ccc1O)c1c(C)[nH][nH]c1=O	1	i	3.3	-0.4	1.4	3	17	-3.7	0.72	0
Cc1ccc(NC(=S)N2CCN(c3ncccn3)CC2)c(C)c1	0	i	-1.3	0.8	0.6	7	5	-3.6	0.7	-2
CCN1CCN(C(=S)Nc2ccc(Cl)c(Cl)c2)CC1	-17	i	3.0	-0.3	-8.4	-12	-4	-5.9	0.59	-5
O=C(c1ccco1)N1CCN(S(=O)(=O)c2ccc(Cl)cc2)CC1	-4	i	-0.7	0.3	1.1	8	3	-0.9	0.64	-4
COc1ccc(NC(=O)COC(=O)c2ccc(OCc3ccc(Cl)cc3Cl)c(OC)c2)c(OC)c1	4	i	5.5	0.8	-2.5	.	.	.	0.72	-13
COC(=O)c1ccccc1NC(=O)Nc1cc(C)ccn1	-10	i	-1.0	0.6	1.8	10	10	-1.3	0.67	-3
CCN(CC)S(=O)(=O)c1ccc(C(=O)NNC(=O)c2csc(N3CCOCC3)n2)cc1	0	i	1.6	0.6	-52	-2	-4	-0.8	0.71	3
O=S(=O)(Cc1ccccc1)Cc1cnc(Cl)s1	-2	i	0.3	0.5	0.8	11	6	-0.2	0.7	2
Cc1ccc(S(=O)(=O)NNC(=O)c2ccncc2)cc1	-1	.	2.6	0.3	.	.	.	.	0.69	-16
COc1cc(NC(=O)c2ccco2)c(OC)cc1NC(=O)Nc1ccc(Cl)cc1	9	.	-65	0.2	.	.	.	.	0.7	47
Cc1ccc(NC(=O)CN2C(=O)c3ccccc3C2=O)cc1	2	i	2.7	-0.6	-1.0	3	8	0.9	0.62	-21
Cc1cc2oc(=O)cc(Cn3ccnc3)c2cc1O	1	.	1.3	0.6	.	.	.	.	0.65	-19
O=C(OCCCOC(=O)c1ccc(O)cc1)c1ccc(O)cc1	-9	i	1.5	-1.2	2.4	-38	-43	-6.2	0.66	9
O=C(CSc1n[nH]c(-c2cccnc2)n1)OC1CCCCC1	1	i	-4.1	1.1	-1.5	-12	-15	3.1	0.69	0
COc1cc(NC(=O)c2ccc3c(c2)OCO3)ccc1NC(=O)c1ccco1	-4	.	-38	-6.9	.	.	.	.	0.76	5
Cc1ccc(C(=O)NCCCC(=O)O)o1	3	.	0.8	0.3	.	.	.	.	0.72	-4
Cc1onc(-c2ccccc2Cl)c1C(=O)NCCN1Cc2ccccc2C1=O	1	.	3.3	-0.4	.	.	.	.	0.7	-6
O=C(CNC(=O)c1cccs1)OCC(=O)c1ccc2ccccc2c1	-13	.	-34	-1.1	.	.	.	.	0.69	-8
Cc1cc(C)n2cc(CSc3nc4ccccc4[nH]3)nc2n1	-7	.	-3.1	0.3	.	.	.	.	0.65	-18

As entered above:
Result for O=C(CNC(=O)c1cccs1)OCC(=O)c1ccc2ccccc2c1 in E coli growth: 0.69
Result for Cc1onc(-c2ccccc2Cl)c1C(=O)NCCN1Cc2ccccc2C1=O in Beta apoptosis: 1
Result for COc1cc(NC(=O)c2ccc3c(c2)OCO3)ccc1NC(=O)c1ccco1 in UCH37 DUB inh: -38
Result for O=C(OCCCOC(=O)c1ccc(O)cc1)c1ccc(O)cc1 in UCH37 DUB inh: 1.5

Carrying on.
SMILES	Beta apoptosis	FGF22 binding	UCH37 DUB inh	Bfl-1 A1 inh	MLL AF4-AF9 inh	Ecoli rRNA inh	Ecoli rRNA inh OD600	Ecoli rRNA inh RFP	E coli growth	T cruzi repl
COc1ccc(C2CC(c3ccc(Br)cc3)=NN2C(=S)Nc2ccccc2)cc1 (centres undefined)	3	i	6.9	-0.1	6.0	10	10	1.4	0.69	38
C/C(Sc1nnc(Cc2ccccc2)o1)=C(\O)c1ccccc1	.	i	4.0	.	2.3	-6	-19	-0.7	0.69	.
CS(=O)(=O)NCCCCCCNS(C)(=O)=O	-1	i	3.0	1.5	-1.9	11	17	2.7	0.67	-6
ClC1(Cl)CC1CSc1nnc(-c2ccncc2)o1 (centres undefined)	-9	i	3.0	-0.5	0.4	-19*	0.9*	3.8*	0.69	4
COCCN(C(=S)Nc1ccc(OC)cc1)C1CCN(C(C)=O)CC1	1	i	3.7	0.1	-2.3	7	-5	-2.6	0.74	-8
O=C(OCC1OC2OC3(CCCCC3)OC2C2OC3(CCCCC3)OC12)c1ccccc1 (centres undefined)	12	i	2.3	0.5	-1.4&0.9	11	6	-2.9	0.72	5
COC(=O)c1cccc(NC(=O)Nc2ccc(Cl)cc2)c1	8	i	-0.3	1.7	-3.9	-5	2	-3.9	0.66	-8
O=C(Cn1ccccc1=O)c1ccc(Cl)cc1	-6	i	-3.1	-0.2	-0.9	1	11	-0.1	0.62	1
C/C(CC(=O)Nc1cc(Cl)ccc1C)=N\NC(=O)C(=O)N1CCCC1	1	i	.	0.6	-1.8	2	3	1.2	.	-2
CCCn1c(=O)c(C(=O)NC(C)c2ccccc2)c(O)c2ccccc21 (centres undefined)	2	i	-1.2	0.1	4.1	13	15	0.5	0.62	34
O=C(c1ccccc1)c1ccccc1C(=O)N1CCCC1	-6	.	1.9	-0.7	.	.	.	.	0.61	-12
Cc1cc(C)cc(N(CCC#N)C(=O)COC(=O)CNC(=O)c2sc3ccccc3c2Cl)c1	-1	i	2.0	0.7	-1.4	-6	-4	3.9	0.71	-4
O=C(COC(=O)CNC(=O)c1ccccc1)Nc1nc(-c2ccccc2)cs1	0	i	-0.1	-0.3	-23	6	8	0.5	0.61	-15
Cc1c(O)c2cccnc2[nH]c1=O	-2	i	2.2	0.5	-1.3	.	.	.	0.69	14
COc1ccc2sc3ccccc3c(=O)c2c1	0	.	-32	0.6	.	.	.	.	0.69	-1
COc1ccc(S(=O)(=O)N2CCCCCC2)cc1C(=O)Nc1ccc(C)cn1	4	i	-3.3	0.0	-1.2	8	6	-0.3	0.69	-1
C[C@H](NC(=O)CCC1CCC(=O)N1)c1ccccc1 (some centres undefined)	-6	i	1.6	0.1	0.0	-14	-6	-5.0	.	-26
CCOc1ccc(C(=S)N2CCCC2)c(OCC)c1	1	i	1.4	0.3	-3.5	1	2	2.1	0.66	10
CCOC(=O)COc1ccc2c(c1)C(=O)CC1(CCN(C(C)=O)CC1)O2	-3	i	i	0.1	2.0	4	-6	-3.4	0.69	-9
CC(C)c1csc(CN2CCC(N3CCC(C(=O)NCC4CCCO4)CC3)CC2)n1 (centres undefined)	-1	i	3.3	0.2	0.0	13	11	-1.6	0.66	-11
O=C(Cc1ccccc1Cl)N1CCN(c2ncccn2)CC1	-3	i	1.1	-0.7	-1.1	5	-2	-1.9	0.71	-24
CCOC(=O)N1CCC(NC(=O)C2CCN(C(=O)c3cc4oc(C)cc4n3Cc3c(F)cccc3Cl)CC2)CC1	-3	i	5.2	1.2	7.0	11	2	0.3	0.67	14
CC(=O)N1CCc2cc(S(=O)(=O)NCCC(=O)N3CCN(c4ccccn4)CC3)ccc21	3	.	0.7	0.7	.	.	.	.	0.68	11

Two entries from above, bar-delimited.
SMILES | Beta apoptosis | FGF22 binding | UCH37 DUB inh | Bfl-1 A1 inh | MLL AF4-AF9 inh | Ecoli rRNA inh | Ecoli rRNA inh OD600 | Ecoli rRNA inh RFP | E coli growth | T cruzi repl
CC(C)c1csc(CN2CCC(N3CCC(C(=O)NCC4CCCO4)CC3)CC2)n1 (centres undefined) | -1 | i | 3.3 | 0.2 | 0.0 | 13 | 11 | -1.6 | 0.66 | -11
O=C(Cc1ccccc1Cl)N1CCN(c2ncccn2)CC1 | -3 | i | 1.1 | -0.7 | -1.1 | 5 | -2 | -1.9 | 0.71 | -24

These rows are one share of the data, so the mix of outcomes need not match the whole.
